# rRNA inh HTS: inhibits bacterial ribosomal RNA function over humanized ribosomes; E. coli WT GFP vs humanized-ribosome RFP mutants, fluorescence, 24 h; stronger effect = lower value; DMSO median 0, no signal -100; GFP signal change (wild-type ribosome), % (concentration not given with the values); 350,000 compounds, 1.6% hits; AID 720706;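 active = significant combined selectivity score with lowered wild-type GFP, culture density cut under 30%, mutant RFP and density less affected; inactive = any of these conditions unmet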; note: one replicate is shown; some compounds called inactive have numbers as strong as hits
# rRNA inh HTS OD600: second read-out of rRNA inh HTS, no call of its own (marks repeat the call); OD600 change, %; measured here: OD600 growth;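 optical density of the mix in the first replicate; 0 = DMSO median and -100 = no signal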
# rRNA inh HTS RFP: second read-out of rRNA inh HTS, no call of its own (marks repeat the call); RFP signal change, %; measured here: RFP humanized mutant strains;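 first replicate; 0 = DMSO median and -100 = no signal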
# * = called active by the depositor; & = joins results of further samples. Not all compounds are listed; rates above refer to the full screens.
# Second line of a record – rRNA inh HTS, rRNA inh HTS OD600, rRNA inh HTS RFP
O=C(Nc1ccc2c(c1)OCCO2)C1c2ccccc2OCC(=O)N1Cc1ccccn1 (stereo unspecified)
 : 3, 10, 1.6
C[C@H]1CN([C@@H](C)CO)C(=O)Cc2cc(NC(=O)CCC(F)(F)F)ccc2O[C@@H]1CN(C)S(C)(=O)=O
 : 4, 7, 0.8
Cc1ccc(S(=O)(=O)Nc2cccc3c2O[C@@H](CN(C)S(=O)(=O)c2cn(C)cn2)[C@H](C)CN([C@H](C)CO)C3=O)cc1
 : 0, -3, -4.9
O=C(C[C@H]1C[C@H]2c3cc(NS(=O)(=O)c4ccc(F)cc4)ccc3O[C@H]2[C@H](CO)O1)N1CCCCC1
 : -1, -12, 16
CCC(=O)N(C)C[C@H]1Oc2cc(C#CCN(C)C)ccc2S(=O)(=O)N([C@@H](C)CO)C[C@@H]1C
 : 1, -12, -3.7
CCC(=O)N(C)C[C@H]1Oc2cc(-c3ccncc3)ccc2S(=O)(=O)N([C@H](C)CO)C[C@@H]1C
 : -2, 0, -2.0
C[C@H](CO)N1C[C@H](C)[C@@H](CN(C)C(=O)C2CCC2)Oc2ncc(C#Cc3ccccc3F)cc2C1=O
 : -2, -7, 7.6
O=C(OCC(=O)N1CCNC1=O)c1ccccc1Cl
 : 8, 3, -3.3
COc1ccc2c3c([nH]c2c1)[C@@H](CO)N(C(=O)C1CCCC1)CC31CCN(C)CC1
 : 7, -2, -1.1
Cc1ccc(S(=O)(=O)N(C)C[C@H]2Oc3ccc(NC(=O)CCCN(C)C)cc3CC(=O)N([C@H](C)CO)C[C@H]2C)cc1
 : -3, -6, -2.6
CNC[C@H]1Oc2ccc(NC(=O)CCCN(C)C)cc2C(=O)N([C@H](C)CO)C[C@H]1C
 : -1, 6, -1.6
C/C=C/c1ccc2c(c1)O[C@@H](CN(C)C(=O)c1ccncc1)[C@H](C)CN([C@H](C)CO)S2(=O)=O
 : 1, -3, -0.2
CO[C@H]1CN(C)C(=O)c2ccc(NC(=O)C3CC3)cc2OC[C@@H](C)N(C(=O)Cc2ccccn2)C[C@H]1C
 : -1, -3, -5.1
COc1ccc(C(=O)N2C[C@H]3[C@@H](c4ccccc42)[C@@H](CO)N3C(=O)NC(C)C)cc1
 : 8, 6, 1.8
CNc1ccc2ncc(-c3ccc(OC)c(OC)c3)n2n1
 : -6, -21, -6.4
O=C(NCC1CCCCC1)c1ccc2sc([C@H]3C[C@H](O)[C@@H](CO)O3)nc2c1
 : 2, 10, 0.5
Clc1cccc(Cc2c(C3CCCCC3)nc3ccc(Br)cn23)c1
 : -3, -11, -4.2
FC(F)(F)c1ccccc1Cc1c(-c2cccc(Br)c2)nc2ccc(Cl)cn12
 : 4, 7, -0.1
CNC[C@H]1Oc2c(N)cccc2C(=O)N(C)C[C@H]1C
 : 2, 4, -0.5
CCS(=O)(=O)Nc1ccc2c(c1)C(=O)N(C)C[C@@H](OC)[C@H](C)CN(C(=O)c1ccc3c(c1)OCO3)[C@H](C)CO2
 : 3, -2, -2.3
CC(C)NC(=O)N[C@@H]1CC[C@H](CC(=O)NCCCN(C)C)O[C@H]1CO
 : 0, 10, -2.2
CN(C)c1ccc(CNC(=O)C2Cc3c(-c4ccccc4Oc4ccccc4)ccnc3O2)cc1 (stereo unspecified)
 : -10, -13, -1.2
C[C@@H]1CN([C@H](C)CO)C(=O)c2cc(NS(=O)(=O)c3cn(C)cn3)ccc2O[C@H]1CN(C)C(=O)Nc1ccc(C(F)(F)F)cc1
 : 1, -1, -4.5
C[C@@H]1CN([C@H](C)CO)C(=O)c2cc(C#CC3CC3)cnc2O[C@H]1CN(C)S(=O)(=O)c1cccc(F)c1
 : -1, 5, 5.8
CCCCS(=O)(=O)N1CCCc2nc(-c3ccc(F)cc3)ccc21
 : -2, 7, 4.4
C[C@@H]1CN([C@@H](C)CO)C(=O)c2cccc(NC(=O)c3ccc(-c4nccs4)cc3)c2O[C@H]1CN(C)C(=O)Nc1ccccc1
 : -4, -4, -1.0
C[C@@H]1CN([C@@H](C)CO)C(=O)Cc2cc(NC(=O)Nc3ccc(C(F)(F)F)cc3)ccc2O[C@@H]1CN(C)Cc1ccncc1
 : -19, -46, 31
COCC(=O)N(C)C[C@H]1Oc2cc(C#CCC3CCCC3)ccc2S(=O)(=O)N([C@@H](C)CO)C[C@H]1C
 : -1, -39, 2.0
COc1ccccc1C(=O)N1CCN(C(=O)[C@H](CCc2ccccc2)NC(=O)[C@H]2O[C@@H](n3cnc4c(N)ncnc43)[C@H](O)[C@@H]2O)CC1
 : 4, -2, 5.1
CN1c2ccc(-c3cccc(C#N)c3)cc2[C@@H]2[C@@H](CCN2C(=O)CN2CCOCC2)[C@H]1CO
 : 14, 23, 5.0

# The final 5 entries of the part before come first, to join the parts.
# Second line of a record – rRNA inh HTS, rRNA inh HTS OD600, rRNA inh HTS RFP
C[C@@H]1CN([C@@H](C)CO)C(=O)c2cccc(NC(=O)c3ccc(-c4nccs4)cc3)c2O[C@H]1CN(C)C(=O)Nc1ccccc1
 : -4, -4, -1.0
C[C@@H]1CN([C@@H](C)CO)C(=O)Cc2cc(NC(=O)Nc3ccc(C(F)(F)F)cc3)ccc2O[C@@H]1CN(C)Cc1ccncc1
 : -19, -46, 31
COCC(=O)N(C)C[C@H]1Oc2cc(C#CCC3CCCC3)ccc2S(=O)(=O)N([C@@H](C)CO)C[C@H]1C
 : -1, -39, 2.0
COc1ccccc1C(=O)N1CCN(C(=O)[C@H](CCc2ccccc2)NC(=O)[C@H]2O[C@@H](n3cnc4c(N)ncnc43)[C@H](O)[C@@H]2O)CC1
 : 4, -2, 5.1
CN1c2ccc(-c3cccc(C#N)c3)cc2[C@@H]2[C@@H](CCN2C(=O)CN2CCOCC2)[C@H]1CO
 : 14, 23, 5.0
O=C1CN(Cc2ccccc2)C[C@H]2[C@@H](c3ccc(-c4cccnc4)cc3)[C@H](CO)N12
 : 1, 1, -2.3
CC(C)(C)c1ccc(S(=O)(=O)NC(=O)C2(C)CCN2C(=O)CC2CC2)cc1 (stereo unspecified)
 : 6, 13, -0.6
COC(=O)C1=C(C)N(Cc2cccc(C(F)(F)F)c2)C(=NCc2ccc(C(F)(F)F)cc2)NC1c1ccc(C(F)(F)F)cc1 (stereo unspecified)
 : -26, -22, 13
COc1ccc(NC(=O)Nc2ccc3c(c2)C(=O)N([C@H](C)CO)C[C@H](C)[C@H](CN(C)C(=O)Nc2ccccc2)OCCCC[C@@H](C)O3)cc1
 : 4, -8, -1.7
C[C@H]1CN([C@@H](C)CO)C(=O)c2cc(NS(=O)(=O)c3cccs3)ccc2O[C@H]1CN(C)S(=O)(=O)c1ccccc1
 : -1, -6, 1.4
Cc1ccc(S(=O)(=O)Nc2ccc3c(c2)C(=O)N([C@H](C)CO)C[C@@H](C)[C@H](CN(C)CC2CC2)OCCCC[C@@H](C)O3)cc1
 : 2, 11, 4.5
C[C@@H]1CCCCO[C@H](CN(C)C(=O)CCCN(C)C)[C@H](C)CN([C@@H](C)CO)C(=O)c2cc(NC(=O)Nc3ccccc3)ccc2O1
 : -3, 1, -0.4
C[C@H](CO)N1C[C@H](C)[C@H](CN(C)S(=O)(=O)c2ccc(Cl)cc2)Oc2ccc(NS(C)(=O)=O)cc2CC1=O
 : -2, 4, -0.4
CCC(=O)Nc1ccc2c(c1)C(=O)N(C)C[C@@H](OC)[C@H](C)CN(Cc1ccccn1)[C@@H](C)CO2
 : -1, 2, -1.0
CCC(=O)N[C@H]1CC[C@@H](CC(=O)NCc2cc(F)cc(F)c2)O[C@H]1CO
 : 2, 6, -0.2
C[C@H]1CN([C@@H](C)CO)C(=O)Cc2cc(NS(C)(=O)=O)ccc2O[C@@H]1CN(C)C
 : 3, 9, -0.8
C[C@H](CO)N1C[C@H](C)[C@H](CN(C)CC2CC2)OCc2ccccc2-c2ccccc2C1=O
 : 2, -4, 2.6
Cc1noc(C)c1NC(=O)N(C)C[C@H]1Oc2ccc(NC(=O)Nc3ccc4c(c3)OCO4)cc2CC(=O)N([C@@H](C)CO)C[C@H]1C
 : 4, 14, -1.6
Cn1cc([C@]2(O)C(=O)Nc3ccc(F)cc32)c2ccccc21
 : 4, 7, -0.5
Nc1ccccc1SC(CC(=O)c1ccccc1)c1cccc([N+](=O)[O-])c1 (stereo unspecified)
 : -24*, -9.9*, 2.5*
COc1ccc(OC)c(C=NNC(=O)NN=Cc2cc(OC)ccc2OC)c1
 : -14, 1, -1.3
O=C(NCc1ccccc1F)[C@@H]1[C@@H](CO)[C@@H]2Cn3c(cccc3=O)[C@@H]2N1CC1CC1
 : -1, 4, -5.2
CC(C)(C)c1ccc(CC(=O)N2CCC2(C)C(=O)NS(=O)(=O)c2ccccc2)cc1 (stereo unspecified)
 : 4, 27, 2.3
COc1ccccc1CNC(=O)C[C@@H]1C[C@H]2c3cc(NC(=O)C4CCOCC4)ccc3O[C@H]2[C@@H](CO)O1
 : -2, 3, -6.0
COc1ccc2c3c([nH]c2c1)[C@H](CO)N(C(=O)c1ccccn1)CC31CCN(C(=O)C2CCC2)CC1
 : 0, 0, -2.6
CN1C[C@@H](O)COC[C@@H]2O[C@H](CC(=O)N3CCN(c4ccccc4)CC3)CC[C@H]21
 : 6, 18, 2.0
Nc1[nH]c(C(=O)c2ccc(Br)cc2)c(-c2ccc(Br)cc2)c1C(=O)NCc1cccc2ccccc12
 : 4, 15, -0.2
NCC[C@@H]1CC[C@@H](NC(=O)NC2CCCCC2)[C@@H](CO)O1
 : 0, 11, -1.7
COc1cc(CNc2ncnc3c2ncn3[C@H]2CN(Cc3ccncc3)C[C@@H](CO)O2)cc(OC)c1OC
 : 4, 14, -0.7
COc1ccc2c3c(n(C)c2c1)[C@@H](CO)N(C(=O)CN1CCOCC1)CC31CN(C(=O)Nc2cccc(F)c2)C1
 : -1, 8, -1.2
O=C(c1ccccc1F)N1C[C@H]2[C@@H](c3ccccc31)[C@@H](CO)N2C(=O)c1ccc(F)cc1
 : 2, 3, -1.7
C[C@H](CO)N1C[C@H](C)[C@H](CN(C)C(=O)c2ccncc2)Oc2cc(C#Cc3ccncc3)ccc2S1(=O)=O
 : -3, -1, -3.5
COc1cccc(S(=O)(=O)N2CCCCN3[C@H](C2)[C@@H](c2ccc(C4=CCCCC4)cc2)[C@@H]3CO)c1
 : 2, -3, 1.9
C[C@@H]1CN([C@H](C)CO)S(=O)(=O)c2ccc(C#Cc3ccccn3)cc2O[C@H]1CN(C)C(=O)C1CC1
 : -3, -22, 4.1
COc1ccc([C@H]2C[C@H](n3cc(C4CC4)nn3)[C@@H](O)CN2C(=O)C2CCCCC2)cc1
 : 2, 5, -1.3

# Look-ups from the entries so far:
# Under rRNA inh HTS, CCC(=O)N(C)C[C@H]1Oc2cc(-c3ccncc3)ccc2S(=O)(=O)N([C@H](C)CO)C[C@@H]1C has -2
# Under rRNA inh HTS OD600, CN1c2ccc(-c3cccc(C#N)c3)cc2[C@@H]2[C@@H](CCN2C(=O)CN2CCOCC2)[C@H]1CO has 23

# Following part
SMILES	rRNA inh HTS	rRNA inh HTS OD600	rRNA inh HTS RFP
COc1ccccc1-c1ccc([C@H]2[C@@H](CO)N(C(C)=O)[C@H]2CN(C)C(C)=O)cc1	-2	1	-0.5
O=C(c1ccc(F)cc1)N1CC[C@@H]2[C@@H](CO)Nc3ccc(C#Cc4ccc(F)cc4)cc3[C@@H]21	-3	-4	16
COc1ccc(NC(=O)N(C)C[C@H]2Oc3c(NC(=O)NC4CCCCC4)cccc3C(=O)N([C@@H](C)CO)C[C@@H]2C)cc1	3	11	-0.6
Nc1nc(N=Nc2ccc(O)cc2)cc(=O)[nH]1	13	14	2.2
C[C@@H]1CN([C@@H](C)CO)C(=O)Cc2cc(NS(=O)(=O)c3cccs3)ccc2O[C@H]1CN(C)S(C)(=O)=O	2	3	1.1
OCCCNc1ncnc2c1ncn2[C@H]1CN(Cc2ccc(-c3ccccc3)cc2)C[C@@H](CO)O1	-3	-4	2.0
CC(=O)Oc1ccc(N(C(C)=O)S(=O)(=O)c2ccccc2)c2ccccc12	1	6	4.7
C[C@H]1CN([C@@H](C)CO)C(=O)CCCn2cc(nn2)CO[C@@H]1CN(C)C(=O)Nc1cccc2ccccc12	-8&4	-10&-4	1.6&4.3
Cc1ccccc1-c1cnc2c(c1)C(=O)N([C@@H](C)CO)C[C@@H](C)[C@@H](CN(C)C(=O)CN(C)C)O2	6	8	-1.3
C[C@H]1CN([C@@H](C)CO)S(=O)(=O)c2ccc(C#CC(C)(C)O)cc2O[C@@H]1CN(C)Cc1ccc(-c2ccccc2)cc1	-2	0	-5.2
Cc1noc(C)c1S(=O)(=O)Nc1ccc2c(c1)C(=O)N([C@H](C)CO)C[C@@H](C)[C@@H](CN(C)C(=O)NC(C)C)OCCCC[C@@H](C)O2	1	9	-1.0
COc1ccc(C#Cc2ccc([C@@H]3[C@@H](CO)N4C(=O)CN(C(=O)c5ccc(F)cc5)C[C@@H]34)cc2)cc1	4	34	-1.0
COCC#Cc1ccc2c(c1)O[C@@H](CN(C)C)[C@@H](C)CN([C@@H](C)CO)S2(=O)=O	5	4	1.1
CCCN1[C@@H]2c3ccc(-c4cccnc4)c(=O)n3C[C@H]1[C@H](CO)[C@H]2C(=O)NC1CCC1	3	11	-2.0
COCC(=O)N(C)C[C@H]1Oc2cc(C#CCC3CCCC3)ccc2S(=O)(=O)N([C@@H](C)CO)C[C@@H]1C	-24	-60	11
COc1ccc(S(=O)(=O)Nc2ccc3c(c2)CC(=O)N([C@H](C)CO)C[C@H](C)[C@@H](CN(C)S(=O)(=O)c2cn(C)cn2)O3)cc1	1	2	-2.4
Cc1cccc(S(=O)(=O)N2C[C@@H]3N[C@H](C2)C3c2ccc(-c3cncnc3)cc2)c1 (stereo partly specified)	2&1	15&-7	1.0&1.1
Cc1noc(C)c1S(=O)(=O)Nc1ccc2c(c1)C(=O)N([C@@H](C)CO)C[C@H](C)[C@@H](CN(C)S(=O)(=O)c1cccs1)OCCCC[C@H](C)O2	-3	-5	0.9

# Screening results deposited in PubChem by Broad Institute.
